Vaccinia Venus: inhibitors of vaccinia virus (Venus reporter); Potency, µM (titrated, usually from 36.5 µM), for the others: top-dose activity change, negative = inhibition, actives largely listed as inhibitors; AID 720580; Vaccinia virus Venus reporter expression, fluorescence; 330,000 compounds, 0.46% hits; active means well fitted inhibition curve with a large enough effect; inconclusive means small, poorly fitted or top-dose-only effect; inactive means no such curve, though single readings can be large or run the other way; tested in A549 cells; note: nearly all actives have a fitted effect of over 30% in size; inactives centre near -10
VACV mCherry inh: vaccinia inhibition (mCherry reporter); Vaccinia virus mCherry reporter infection, fluorescence; about a quarter of the inactives have no number; Potency, µM (highest dose often 36.5 µM), for inactives: at the highest dose activity change, negative = inhibition, most hits filed as inhibitors; 310,000 compounds, 0.63% hits; active = well fitted inhibition curve with a large enough effect; inconclusive = small, poorly fitted or top-dose-only effect; inactive = no such curve, though single readings can be large or run the other way; tested in A549 cells; note: nearly all actives have a fitted effect of over 35% in size; inactives centre near -10
* = called active by the depositor; i = inactive; ? = inconclusive; · = no result given; & = joins results of further samples; [ ] = remark or other dose. % is set by controls: 0 for no effect and ±100 for the full control effect; potency is the fitted concentration of half-maximal effect.

mol	Vaccinia Venus	VACV mCherry inh
C#CCn1cc[n+](CC(=O)N(C)C)c1	-10.2%	-13.2%
CCCc1cnc2c(c1SCc1cccc(F)c1)c(=O)n(C)c(=O)n2C	-17.2%	-12.2%
COc1ccc(CCNC(=S)N2CCC(Cc3ccccc3)CC2)cc1OC	-6.5%	-12.7%
O=C(CC1CCCCC1)Nc1ccccc1-c1ccccc1	-18.4%	i
CCN(CC)S(=O)(=O)c1ccc(NC2c3ccccc3C(=O)N2Cc2ccco2)cc1 (centres undefined)	0.0%	-17.0%
CCN(CC)CCCOC(=O)C(c1ccccc1)c1ccccc1	-8.0%	-6.0%
Cn1ccc2c(N3CCC3)cc3c(c21)C1CCC3O1 (centres undefined)	3.0%	6.5%
CN(C)CCCN(C(=O)/C=C/c1cccs1)c1nc2ccc(F)cc2s1	-18.7%	?
Cc1c(C(=O)C(=O)N2CCC3(CC2)OCCO3)c2ccccc2n1C	-0.3%	-2.6%
Cc1cc(Cl)ccc1OCC(=O)Nc1ccc2oc(=O)ccc2c1	0.1%	8.0%
CC(C)OP(=O)(Nc1cccc2ccccc12)OC(C)C	-17.0%	-5.6%
CCCCCCn1cc(CN2CC(N3CCCC3)CS2(=O)=O)nn1 (centres undefined)	5.7%	23.4%
COc1ccc(-c2nc(-c3cccs3)c(-c3cccs3)[nH]2)cc1O	-22.3%	-30.1%
CCOC(=O)c1cc(-c2ccc(/C=N\n3cnnc3)o2)ccc1Cl	-10.5%	·
Nc1cc(=O)nc(SCC(=O)Nc2ccc(F)cc2)n1CCc1ccccc1	-3.7%	i
O=C(O)c1cccc(CN2C(=O)SC(Nc3ccccc3)C2=O)c1 (centres undefined)	-6.5%	-12.9%
Cc1nn2c(NCCN3CCOCC3)c3c(nc2c1-c1ccccc1)CCCC3	9.2%	i
CCOc1cc(CN2CCN(CCOCCO)CC2)ccc1OC	-7.6%	i
CN(C(=O)c1ccc(NC(=O)Cc2ccc(NC(=O)C3CCCN(C(=O)C4CCCC4)C3)cc2)cc1)C1CCCC1 (centres undefined)	-12.2%	i
CCCCn1c(N)c(N(CC)C(=O)c2cccs2)c(=O)[nH]c1=O	-4.2%	-3.4%

Part of the list above in a different format.
CCCc1cnc2c(c1SCc1cccc(F)c1)c(=O)n(C)c(=O)n2C
  Vaccinia Venus: -17.2%
  VACV mCherry inh: -12.2%

COc1ccc(CCNC(=S)N2CCC(Cc3ccccc3)CC2)cc1OC
  Vaccinia Venus: -6.5%
  VACV mCherry inh: -12.7%

Continued.
mol	Vaccinia Venus	VACV mCherry inh
COc1cc(NC(=O)C(C)Oc2ccccc2)c(OC)cc1NC(=O)c1ccccc1 (centres undefined)	-26.4%	-11.5%
Cc1ccc(CCNC(=O)c2c[nH]c3ccc(S(=O)(=O)Nc4cccc(C(F)(F)F)c4)cc3c2=O)cc1	-9.5%	-7.6%
CCCOc1ccc(C(=O)Nn2c(C)nc3ccccc3c2=O)cc1	-10.7%	-16.3%
CCN(CC)C(=O)c1ccccc1NC(=O)CN1C(=O)c2ccccc2S1(=O)=O	-7.3%	i
COc1ccc(N2C(=O)C3CCCN3C2c2cccc(Br)c2)cc1 (centres undefined)	-4.3%	-3.7%
COc1ccc2[nH]c(C)c(CCN3C(=O)OC(C)(C)C3(C)O)c2c1 (centres undefined)	1.1%	-6.2%
CC(=O)OC1CCC2(C)C(=CCC3C4CC(=O)N(O)C(=O)C4(C)CCC32)C1 (centres undefined)	1.3%	-1.6%
CCOC(=O)CC(=O)Nc1ccc(C)cc1	-2.2%	-4.2%
CC(=O)Nc1ccc(NC(=O)C(C)OC(=O)CCC2CCCCC2)cc1 (centres undefined)	-6.1%	-5.4%
CCOC(=O)N1CCN(C2=C(NS(=O)(=O)c3ccc(Br)cc3)C(=O)c3ccccc3C2=O)CC1	?	?
O=C(CCSCc1cccc(Cl)c1)NCCc1ccccc1	-11.4%	-16.9%
COc1ccc(C#Cc2c(-c3ccc(OC)cc3)oc3ccc(-c4ccc5c(c4)OCO5)cc23)cc1	-5.1%	-8.9%
O=C(Nc1cccc(Cl)c1)c1c(NC(=O)C(F)(F)F)sc2c1CCCC2	?	12.6µM*
CC(NC(=O)C(C)N1CCN(Cc2ccccc2)CC1)c1ccccc1 (centres undefined)	-1.7%	?
COc1ccc(C(=O)COC(=O)CCNS(=O)(=O)c2ccccc2)cc1Br	-1.0%	-16.6%
c1c2c(cc3sc(N4CCOCC4)nc13)OCO2	-9.5%	-12.7%
COC(=O)c1ccc(N2CCN(C)CC2)c(NC(=O)COc2ccccc2)c1	-25.2%	-18.8%
COc1cc(C=C2C(=O)NC(=O)NC2=O)cc(OC)c1OC	-8.5%	i
O=C(NCCS(=O)(=O)NCc1ccccc1Cl)c1ccccc1	-11.1%	-6.5%
Cc1ccc(S(=O)(=O)N/N=C/c2ccc3nccnc3c2)cc1	-22.8%	-5.6%

mol	Vaccinia Venus	VACV mCherry inh
CCOc1ccc(C(=O)N2CCCCCC2)cc1	?	·
CC(C)(C)NC(=O)CSc1ccc(S(=O)(=O)N2CCOCC2)cn1	-5.9%	-13.2%
Cc1cc(C)n(C(=O)CNC(=O)c2cccc(Cl)c2)n1	-11.0%	-9.9%
CC(NC(=O)Nc1ccccc1)C(c1cccs1)N1CCN(C)CC1 (centres undefined)	-12.4%	i
CC(CNC(=O)CCCn1c(=O)c2cccn2c2cccnc21)c1ccccc1 (centres undefined)	-4.9%&-16.3%	-12.6%&-2.3%
Cc1ccc(C)c(N2CCN(C(=O)c3cc4cc5ccc(C)cc5nc4s3)CC2)c1	-0.4%	-6.6%
CC(=O)N1CCc2c(sc3c2c(=O)n(-c2ccccc2)c(=O)n3CC(=O)Nc2cc(C)cc(C)c2)C1	-3.2%	-12.4%
CC(=O)Nc1nnc(SCc2cc(=O)c3cccc(Cl)c3[nH]2)s1	-18.4%	-4.8%
Cc1cc(C)cc(-n2c(O)c(C=Nc3ccc(N4CCOCC4)cc3)c(=O)[nH]c2=S)c1	-13.3%	-1.5%
CCCc1sc(C(=O)Nc2nnc(C3CC3)s2)cc1CC	-0.8%	-15.8%
CCOC(=O)c1cc(C(=O)NC(C)c2ccccc2)c(C)[nH]c1=O (centres undefined)	-13.4%	i
CC(C)c1ccc(NC(=O)C2CCN(S(=O)(=O)c3ccc4c(c3)C(C)(C)C(=O)N4C)CC2)cc1	?	-8.8%
COc1ccc(C(=O)Nc2ncccc2C)cc1S(=O)(=O)N1CCOCC1	-19.3%	-2.4%
O=C(CN1CCN(c2ccc(C(F)(F)F)cn2)CC1)NCc1ccc2c(c1)OCO2	-19.3%	?
COc1ccc(C(=O)Nn2c(CCC(=O)O)ccc2-c2ccc(C)cc2)cc1OC	7.3%	-4.4%
CCOc1ccc(Sc2cc(C(=O)NCc3ccccc3Cl)c3ccccc3n2)cc1	-4.5%	-6.1%
Cc1ccc(OCC(=O)Nc2ccccc2C(=O)N2CCCCC2)cc1	-10.4%	-10.5%
Cc1cccc(CN2CCC(CNC(=O)CSc3cc(=O)n(C)c4cc(Cl)ccc34)CC2)c1	16.3%	i
Cc1ccc(C)c(N2CCN(CCCNC(=O)c3ccc4nc(CCc5ccccc5)oc4c3)CC2)c1	-12.5%[7.34 µM]	-15.0%[7.34 µM]
O=C(CSc1nnc(-c2cccnc2)o1)N1CCCCC1	5.7%	0.4%

Quoted from the listing.
CC(C)(C)NC(=O)CSc1ccc(S(=O)(=O)N2CCOCC2)cn1 in Vaccinia Venus reads -5.9%
Cc1cc(C)n(C(=O)CNC(=O)c2cccc(Cl)c2)n1 in Vaccinia Venus reads -11.0%
Cc1cccc(CN2CCC(CNC(=O)CSc3cc(=O)n(C)c4cc(Cl)ccc34)CC2)c1 in Vaccinia Venus reads 16.3%
CC(NC(=O)Nc1ccccc1)C(c1cccs1)N1CCN(C)CC1 (centres undefined) in Vaccinia Venus reads -12.4%

Going on with the list:
mol	Vaccinia Venus	VACV mCherry inh
COc1cc(-c2noc(-c3ccc(N4CCCC4)c([N+](=O)[O-])c3)n2)cc(OC)c1OC	14.3%	8.6%
O=C(CN1C(=O)NC(c2ccccc2)(c2ccccc2)C1=O)Nc1cccnc1Cl	-11.0%	-10.0%
COc1ccc(NC(=O)COc2ccc(CNCCCN3CCOCC3)cc2OC)cc1	-4.1%	-12.9%
Cc1cc(C)n(C(=O)c2cc3ccccc3c(=O)o2)n1	-7.0%	·
COC(=O)c1cccc(-n2nnnc2SCC(=O)Nc2nc3c(s2)CCCC3)c1	-10.0%	·
CSc1cccc(NC(=O)CNC(=O)c2ccc3c(c2)OCO3)c1	-11.2%	i
COc1ccc(-c2cc(-c3nnc(COC(=O)c4ccncc4)o3)c3ccccc3n2)cc1OC	-11.8%	-4.6%
CCCc1nc2c(sc3nc4c(cc32)COC(C)(C)C4)c(=O)n1CCN(C)C	-1.6%	i
O=C(N1CCCCC1)N1CCN(C(=O)N2CCCCC2)CC1	-20.9%	i
CCO[C@H]1OC(C(=O)Nc2ccccc2)=C[C@@H](c2cn(C(C)=O)c3ccccc23)[C@@H]1CCCO	-28.7%	-7.3%
COc1ccc(C(CNC(=O)Cn2c(=O)oc3ccccc32)N(C)C)cc1 (centres undefined)	-12.2%	i
CCC1Oc2ccc(C)cc2N(CC(=O)N(Cc2ccc3c(c2)OCO3)CC2CCCO2)C1=O (centres undefined)	-0.2%	-4.3%
C[C@@H]1CCCCCCCCC(=O)OCCN[C@H](C)CCCCCCCCC(=O)OCCN[C@H](C)CCCCCCCCC(=O)OCCN1	?	-29.2%
O=C(c1ccc(CS(=O)(=O)c2ccc(Br)cc2)o1)N1CCN(c2ncccn2)CC1	-2.2%	i
COc1ccc2c(c1)c(CC(=O)Nc1nnc(C3CC3)s1)c(C)n2C(=O)c1ccc(Cl)cc1	-9.7%	?
Cc1noc(C)c1CSCC(=O)OCc1nnc(-c2ccc([N+](=O)[O-])cc2)o1	8.0%	-6.0%
CCc1ccc(NC(=O)c2ccc3oc(=O)n(Cc4ccccc4)c3c2)cc1	?	?
CN(C)S(=O)(=O)N1CCC(Oc2ccc(C(=O)N3CCCCCC3)cc2)CC1	-23.6%	-11.1%
CCOC(=O)N1CCN(c2c(Nc3ccc4c(c3)OCCO4)c(=O)c2=O)CC1	-8.3%	?
CN1CCN(/N=C/c2ccc(N(c3ccccc3)c3ccccc3)cc2)CC1	-23.4%	-22.2%

Every second line gives: Vaccinia Venus, VACV mCherry inh
> CCOC(=O)[C@]12CCCC=C1N(CCc1ccc(OC)c(OC)c1)C(=O)[C@H](CC(=O)NCc1ccc(C)o1)C2
    -16.0%, -6.2%
> O=[N+]([O-])c1cccc(COc2ccc(CN3CCOCC3)cc2)c1
    -18.9%, -18.2%
> CCCc1c(C(=O)N/N=C(\C)c2cc(C)sc2C)nnn1-c1nonc1N
    -20.4%, i
> COc1ccc(S(=O)(=O)N2CCCCC2c2cc(C(=O)Nc3ccc4c(c3)OCO4)no2)cc1 (centres undefined)
    -7.6%, -17.0%
> Cc1ccc(N2CCN(C3=NC(=O)/C(=C\c4cn[nH]c4-c4ccccc4)S3)CC2)cc1
    -17.1%, -29.3%
> COC(=O)c1ccc2nc(Nc3nc4ccc(F)cc4s3)sc2c1
    -2.8%, i
> Cc1ccc(C)c(C(=O)COc2ccccc2[N+](=O)[O-])c1
    -7.1%, -0.1%
> CC(Oc1ccc(F)cc1Br)c1nc2ccccc2c(=O)[nH]1 (centres undefined)
    -13.6%, -10.0%
> COc1ccc(Nc2ncc3c(n2)CC(c2ccc(OC)cc2)CC3=O)cc1 (centres undefined)
    -11.9%, -24.3%
> CCOc1ccc(NC(=O)Nc2ccc3c(c2)nc(C)n3C)cc1
    1.3%, -4.4%
> CC(C)(C)c1cc(Br)ccc1OCC(=O)Nc1ncn[nH]1
    -18.1%, ·
> CC(=O)N1CCC(N(C(=O)Nc2ccc(F)cc2)C2CCCC2)CC1
    -7.9%, 17.0%
> CC(C)C[C@@]12C(=O)N(c3ccc(Br)cc3)C(=O)N1[C@H](c1ccc(Br)cc1)[C@@H]1C(=O)N(C(C)(C)C)C(=O)[C@@H]12
    ?, i
> Cc1ccc(C(=O)NC(C)CCc2ccccc2)cc1[N+](=O)[O-] (centres undefined)
    -13.3%, -10.8%
> Cc1cc(C)cc(-n2c(-c3ccccc3)c(C)n3c4c(=O)n(C)c(=O)n(C)c4nc23)c1
    -6.2%, -7.6%

4 compounds drawn at random from the list so far:
Every second line gives: Vaccinia Venus, VACV mCherry inh
> O=[N+]([O-])c1cccc(COc2ccc(CN3CCOCC3)cc2)c1
    -18.9%, -18.2%
> COc1ccc(Nc2ncc3c(n2)CC(c2ccc(OC)cc2)CC3=O)cc1 (centres undefined)
    -11.9%, -24.3%
> CC(Oc1ccc(F)cc1Br)c1nc2ccccc2c(=O)[nH]1 (centres undefined)
    -13.6%, -10.0%
> CC(=O)N1CCC(N(C(=O)Nc2ccc(F)cc2)C2CCCC2)CC1
    -7.9%, 17.0%

(continued)
Every second line gives: Vaccinia Venus, VACV mCherry inh
> COc1cc(NC(=O)c2ccc(CNc3c(N4CCCC4)c(=O)c3=O)cc2)cc(OC)c1OC
    -13.9%, 9.6%
> O=C(Nc1nc(N2C(=O)c3ccccc3C2=O)n(-c2ccccc2)n1)c1ccc(F)cc1
    -20.1%, i
> NC(=O)CCN1CCC(c2nc3ccccc3s2)CC1
    -0.8%, -1.3%
> Cc1cc(C(=O)Nc2c(C)nn(Cc3ccc(F)cc3)c2C)no1
    -4.3%, -11.2%
> Cc1oc(-c2ccccc2F)nc1CS(=O)(=O)CC(=O)NCCCN1CC(C)CC(C)C1 (centres undefined)
    -29.0%, -8.1%
> Cc1ccc(-c2[nH]ncc2CN2CCN(C(=O)c3cccs3)CC2)cc1C
    -23.3%, -6.9%
> CN(C)C(=O)c1cc(C(=O)c2ccc(C(F)(F)F)cc2F)c[nH]1
    -5.5%, 3.7%

Source: PubChem BioAssay (National Center for Advancing Translational Sciences (NCATS))
